GALR2 ag = activates the human galanin receptor 2. GALR2-expressing cells, agonist activation read-out. activation, %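 (tested at 5 µM)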. 140,000 tested, 0.48% active;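 active = above mean plus 3 SD of all compounds, about 5% in these data, not always enough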;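 also: 0% = vehicle buffer wells and 100% = reference agonist at full effect; tested in CHO reporter cells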
Insulin prom inh = TRM-6 insulin promoter activity inhibition; TRM-6 cells (human fetal islet line), insulin promoter-eGFP reporter, imaging; reporter expression induced with tamoxifen; inhibition, % at 2 µM; 130,000 tested, 0.9% active;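 active = inhibition above the mean plus 3 SD, with well images judged a real hit on visual review, cut at about 60% in these data, passing the limit was not always enough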
PKD1 inh = blocks activity of human protein kinase D1 | Q15139 | PKD1 kinase fluorescence polarization assay | inhibition, %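 (about 10 µM by stock and volumes)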 | 200,000 tested, 0.056% active | AID 797;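 active = inhibition of 50% or more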;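 also: controls were vehicle for no effect and a reference inhibitor for full effect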
Target sequence (Q15139 whole entry, looked up): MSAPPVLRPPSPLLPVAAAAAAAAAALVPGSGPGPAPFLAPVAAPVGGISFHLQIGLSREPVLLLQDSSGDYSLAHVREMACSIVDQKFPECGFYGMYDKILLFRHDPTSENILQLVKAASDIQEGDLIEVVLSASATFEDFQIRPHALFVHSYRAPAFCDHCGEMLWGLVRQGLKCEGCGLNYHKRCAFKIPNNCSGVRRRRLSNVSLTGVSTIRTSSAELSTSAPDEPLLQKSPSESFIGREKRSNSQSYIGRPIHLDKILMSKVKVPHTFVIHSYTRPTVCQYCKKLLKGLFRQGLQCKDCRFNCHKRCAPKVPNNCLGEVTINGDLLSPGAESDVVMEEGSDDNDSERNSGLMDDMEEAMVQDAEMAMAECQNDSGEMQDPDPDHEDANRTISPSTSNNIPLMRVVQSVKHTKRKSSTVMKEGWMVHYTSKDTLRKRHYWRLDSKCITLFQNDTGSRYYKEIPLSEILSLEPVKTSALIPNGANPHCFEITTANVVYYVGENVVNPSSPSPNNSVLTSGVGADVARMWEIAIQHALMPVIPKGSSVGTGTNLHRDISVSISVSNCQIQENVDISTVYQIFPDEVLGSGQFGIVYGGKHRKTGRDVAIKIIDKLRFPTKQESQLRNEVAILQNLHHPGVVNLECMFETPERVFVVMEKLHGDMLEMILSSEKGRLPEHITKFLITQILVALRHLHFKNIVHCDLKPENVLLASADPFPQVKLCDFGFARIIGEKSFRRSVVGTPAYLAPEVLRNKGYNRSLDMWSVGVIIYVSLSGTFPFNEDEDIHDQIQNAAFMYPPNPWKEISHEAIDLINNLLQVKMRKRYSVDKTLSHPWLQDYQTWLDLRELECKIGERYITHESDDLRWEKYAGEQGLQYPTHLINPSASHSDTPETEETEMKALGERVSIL
HSV replic up = HSV replication enhancement; HSV replication augmentation in cells, fold increase; maximum fold increase; 220,000 tested, 0.005% active;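 active = peak rise of 1.5-fold or more in the series; tested in PC3 cells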;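 also: first round at 10 µM; read as green reporter fluorescence; hits show the peak of a series up to 25 µM; 1 = signal of infected wells without compound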
RGS16-Gao HTS = regulators of human RGS16-Galphao interaction. bead-based flow cytometry RGS16-Galphao binding, fluorescence; actives lie on both sides. binding response (% of control), % at 10 µM. 220,000 tested, 0.38% active;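 active = below 25% or above 175%, edge rows of some plates excepted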;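 also: Galphao activated by GDP with aluminum fluoride before binding; 100% = wells without compound and 0% = beads without RGS; some results beyond the cut were filed as inactive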
Insulin prom inh cell count = recorded beside Insulin prom inh, whose call it bears; normalized cell count, %; measured here: cell count, toxicity; reference of the scale not given here;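 cells exposed to compound for 48 h; stained nuclei by imaging scaled within each plate; lower means fewer cells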
HSV replic up primary fold = second read-out of HSV replic up, no call of its own (marks repeat the call); fold increase; compound at 10 µM; measured here: primary screen fold increase 10 uM; tested in PC3 cells;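 GFP signal in the first replicate; 1 = infected wells without compound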
* marks the source's active call; other numbers are inactive results; i = inactive; nt = no result given. Not a hit list, and some 1.3% of all compounds hit somewhere here.

SMILES	GALR2 ag	Insulin prom inh	Insulin prom inh cell count	PKD1 inh	HSV replic up	HSV replic up primary fold	RGS16-Gao HTS
CC1(c2nnc(-c3ccc(F)cc3)o2)CC(c2ccccc2)=NO1 (centres undefined)	nt	nt	nt	nt	i	1.17	97.3
CCOC(=O)C1=C(C)NC(=O)N(C(C)=O)C1c1ccc(Cl)cc1 (centres undefined)	-0.9	18.5	111.0	-7.1	i	1.08	109.2
O=C(NOC(=O)c1ccccc1F)c1ccc(OC(F)F)cc1	nt	6.7	86.1	-2.6	i	1	100.7
c1ccc2oc(-c3ccc4nc[nH]c4c3)nc2c1	-1.1	46.7	84.4	7.3	i	1.15	94.1
O=C(Cc1c(F)cccc1Cl)Nc1cccnc1	-1.0	-309.5	52.4	-1.2	i	0.92	100.2
COc1ccc(C2=NN(C(=O)c3cccnc3)C(c3ccccc3)C2)cc1 (centres undefined)	-0.2	nt	nt	-6.2	i	0.95	97.2
CN1CCN(C(=O)C23CC4CC(CC(C4)C2)C3)CC1	-2.0	-57.1	102.9	-4.7	i	0.83	93.5
Cc1ccc(SCCNC(=O)CN(c2ccc3c(c2)OCO3)S(C)(=O)=O)cc1	-0.7	47.6	62.7	-2.7	i	0.86	93.4
COc1cc(NC(=S)NCc2ccco2)cc(OC)c1OC	-1.6	nt	nt	-7.5	i	1.25	100.0
Cc1cc(=O)[nH]c(-n2[nH]c(C)cc2=O)n1	-1.7	-5.7	86.1	-1.6	i	1.16	103.1
O=C(NCCN1CCOCC1)C1CCN(c2ncnc3c2sc2cccc(F)c23)CC1	-1.4	nt	nt	-3.9	i	0.87	94.2
CN(Cc1nc(Cc2cccc(C(F)(F)F)c2)no1)C1CC(C)(C)NC(C)(C)C1	nt	16.7	116.2	0.2	i	0.81	102.4
CCn1nc(C(=O)Nc2cccc(C(F)(F)F)c2)c(Cl)c1Cl	-0.8	-11.1	21.1	-6.2	i	0.9	109.9
NC(N)=NC(N)=Nc1ccc(SC(F)(F)F)cc1	-1.3	42.9	67.3	-2.8	i	0.84	15.8*
CCCCn1c(=O)[nH]c(=O)c2c1nc(-c1ccc(C)c([N+](=O)[O-])c1)n2CC	nt	nt	nt	5.5	i	0.73	92.9
O=C(CSc1nnc(Cc2cc(=O)[nH]c(=O)[nH]2)n1-c1ccccc1)NCC1CCCO1 (centres undefined)	-2.6	-16.7	94.5	-0.3	i	1.06	114.0
Cc1ccc(N2CC(C(=O)Nc3c(C)n(C)n(-c4ccccc4)c3=O)CC2=O)cc1 (centres undefined)	nt	-27.3	195.7	-7.2	i	0.94	111.5
O=C1c2sc3nc4n(c(=O)c3c2CCC1Br)CCCCC4 (centres undefined)	-2.2	6.7	99.8	-3.5	i	0.86	78.2
Nc1c(-c2ccccc2)c(CSc2nc3ccccc3[nH]2)nn1-c1cccc(C(=O)O)c1	nt	-10.0	38.5	-3.9	i	0.93	105.5
Cc1cccn2c(=O)c3cc(C(=O)NCCCn4ccnc4)n(C)c3nc12	-0.1	nt	nt	-6.4	nt	nt	98.9
Cn1c(=O)c2c(nc(NCC3CCCO3)n2Cc2ccccc2)n(C)c1=O (centres undefined)	-0.8	81.4*	10.8*	-4.2	i	0.89	97.1
O=C(c1cc2cc(C(F)(F)F)ccc2s1)N1CCOCC1	nt	nt	nt	-9.5	i	0.95	101.8
COc1ccccc1N(CC(=O)NCC1CCCO1)C(=O)CCC(=O)Nc1nccs1 (centres undefined)	-1.1	-437.5	56.1	-6.6	i	1.03	105.1
COc1ccc(C2C(C(=O)O)c3ccccc3C(=O)N2Cc2ccco2)cc1 (centres undefined)	nt	nt	nt	nt	i	0.97	100.2
Cc1cccc(Nc2nc(N)nc(-c3oc4ccccc4c3C)n2)c1	nt	nt	nt	nt	i	0.78	106.3

Entries shown so far containing an NH in an aromatic ring:
SMILES	GALR2 ag	Insulin prom inh	Insulin prom inh cell count	PKD1 inh	HSV replic up	HSV replic up primary fold	RGS16-Gao HTS
c1ccc2oc(-c3ccc4nc[nH]c4c3)nc2c1	-1.1	46.7	84.4	7.3	i	1.15	94.1
Cc1cc(=O)[nH]c(-n2[nH]c(C)cc2=O)n1	-1.7	-5.7	86.1	-1.6	i	1.16	103.1
CCCCn1c(=O)[nH]c(=O)c2c1nc(-c1ccc(C)c([N+](=O)[O-])c1)n2CC	nt	nt	nt	5.5	i	0.73	92.9
O=C(CSc1nnc(Cc2cc(=O)[nH]c(=O)[nH]2)n1-c1ccccc1)NCC1CCCO1 (centres undefined)	-2.6	-16.7	94.5	-0.3	i	1.06	114.0
Nc1c(-c2ccccc2)c(CSc2nc3ccccc3[nH]2)nn1-c1cccc(C(=O)O)c1	nt	-10.0	38.5	-3.9	i	0.93	105.5

The listing picks up, starting three compounds before the break.
SMILES	GALR2 ag	Insulin prom inh	Insulin prom inh cell count	PKD1 inh	HSV replic up	HSV replic up primary fold	RGS16-Gao HTS
COc1ccccc1N(CC(=O)NCC1CCCO1)C(=O)CCC(=O)Nc1nccs1 (centres undefined)	-1.1	-437.5	56.1	-6.6	i	1.03	105.1
COc1ccc(C2C(C(=O)O)c3ccccc3C(=O)N2Cc2ccco2)cc1 (centres undefined)	nt	nt	nt	nt	i	0.97	100.2
Cc1cccc(Nc2nc(N)nc(-c3oc4ccccc4c3C)n2)c1	nt	nt	nt	nt	i	0.78	106.3
COc1cc(N)cc(NC(=O)c2ccncc2)c1	-2.5	nt	nt	1.1	i	0.93	56.3
O=C(Oc1cc(-c2ccccc2)no1)c1ccc(F)cc1	0.0	19.4	122.0	0.7	i	0.99	99.1
Cc1c(C(=O)N(Cc2cccs2)C2CCS(=O)(=O)C2)oc2ccccc12 (centres undefined)	-0.3	-8.3	142.4	7.8	i	0.94	145.6
CCOC(=O)COc1ccc(C2NC(C(=O)O)CS2)cc1 (centres undefined)	-0.7	nt	nt	-4.8	i	1.03	104.2
CCCSCCCNC(=O)c1cc2c(s1)CS(=O)(=O)C2	-0.2	-408.3	127.4	-1.1	i	0.95	103.3
O=C(Nc1ccccc1)c1ccc(NCCN2CCOCC2)c(S(=O)(=O)N2CCOCC2)c1	-3.1	-275.0	34.7	0.8	i	1.08	97.1
CC(C)c1ccc(NC(=O)C2=NNC(=O)CC2)cc1	nt	nt	nt	nt	i	0.85	94.5
CCCN(CCC)S(=O)(=O)c1nc2nc(C)cc(C)n2n1	nt	nt	nt	nt	i	1.01	106.1
Nc1c(C(=O)NCc2ccco2)c2nc3ccccc3nc2n1CCc1ccccc1F	7.1	-5.6	135.9	-0.6	i	0.89	98.8
CN1CCC(OC(=O)C23CCC(C)(C(=O)O2)C3(C)C)CC1 (centres undefined)	0.0	-137.5	92.0	5.2	i	0.87	107.2
O=C(Nc1nc(=O)c2ccccc2s1)c1ccc(F)cc1	-0.5	-17.3	104.8	-14.7	i	0.87	97.5
O=C(/C=C/c1ccc2c(c1)OCO2)Nc1cc(S(=O)(=O)N2CCOCC2)ccc1N1CCOCC1	-0.7	16.9	100.0	2.3	i	0.78	103.6
OC1=C(O)c2nc3cc(F)ccc3nc21	nt	nt	nt	nt	i	1.1	102.5
Nc1ccc(-c2nc3c(Cl)cc(N)cc3[nH]2)cc1	0.6	nt	nt	-9.2	i	0.997	89.2
CCN(CC)CCNC(=O)CS(=O)Cc1nc(-c2ccccc2Cl)oc1C (centres undefined)	-1.5	nt	nt	-11.3	i	1.08	102.9
CCN(CC)S(=O)(=O)c1cccc2nsnc12	-0.8	55.6	97.8	-6.1	i	0.88	92.7
CCc1ccccc1N1CN(Cc2cccnc2)CNC1=S	nt	nt	nt	nt	i	0.91	107.0
C#CCNC(=O)C1=C[C@@H](c2csc3ccccc23)C[C@@H](OCc2ccc(CO)cc2)O1	nt	nt	nt	4.9	i	0.78	96.2
COCCCNC(=S)N/N=C/c1ccc(O)cc1	nt	nt	nt	nt	i	0.93	101.3
O=C(COC(=O)c1n[nH]c2ccccc12)NCc1ccccc1	-1.5	52.2	80.1	3.4	i	1.07	100.2
COc1cccc(CN2CCN(CC(=O)Nc3ccccc3Cl)CC2)c1	-2.2	0.0	77.5	-0.8	i	1.02	100.1
C=CCNC(=O)/C(C#N)=C/c1ccc(C(=O)O)cc1	nt	nt	nt	0.4	i	1.06	100.7
COc1ccc(NC(=O)CSc2ncnc3c2cnn3Cc2ccccc2)cc1	0.2	3.5	139.5	-1.8	i	1.26	58.6
Cn1c(=O)[nH]c(=O)c2c1nc(NCCCn1ccnc1)n2Cc1ccccc1	-1.0	-36.8	165.5	-16.5	i	0.88	98.1
COc1ccc(C(=O)Nc2ccc(S(=O)(=O)N3CCc4ccccc43)cc2)cc1	0.5	-493.8	12.3	5.8	i	0.83	104.5

Compound profiles, as listed above. Order of screens: GALR2 ag, Insulin prom inh, Insulin prom inh cell count, PKD1 inh, HSV replic up, HSV replic up primary fold, RGS16-Gao HTS
Profile of `O=C(Nc1nc(=O)c2ccccc2s1)c1ccc(F)cc1` : -0.5, -17.3, 104.8, -14.7, i, 0.87, 97.5
Profile of `O=C(Oc1cc(-c2ccccc2)no1)c1ccc(F)cc1` : 0.0, 19.4, 122.0, 0.7, i, 0.99, 99.1

The main list resumes with the 2 entries that preceded the break.
SMILES	GALR2 ag	Insulin prom inh	Insulin prom inh cell count	PKD1 inh	HSV replic up	HSV replic up primary fold	RGS16-Gao HTS
Cn1c(=O)[nH]c(=O)c2c1nc(NCCCn1ccnc1)n2Cc1ccccc1	-1.0	-36.8	165.5	-16.5	i	0.88	98.1
COc1ccc(C(=O)Nc2ccc(S(=O)(=O)N3CCc4ccccc43)cc2)cc1	0.5	-493.8	12.3	5.8	i	0.83	104.5
CS(=O)(=O)Nc1ccc(N2CCCCC2)c(Cl)c1	-0.7	40.7	100.0	-9.0	i	0.98	82.3
CC1=CC2=NCC(O)CN2C=C1 (centres undefined)	-0.6	nt	nt	-3.8	i	0.93	100.5
COC(=O)c1ccc(C)c(NC(=O)Cn2cnc3ccccc3c2=O)c1	-2.6	nt	nt	5.1	i	0.81	164.8
C/C(=N\NC(=O)C1CCCN(S(=O)(=O)c2ccccc2)C1)c1ccncc1 (centres undefined)	-0.6	30.4	110.5	-13.1	i	0.92	106.1
Oc1ccccc1-c1cc(-c2ccc3c(c2)OCCO3)n[nH]1	-0.1	23.1	140.3	-14.3	nt	nt	79.1
O=C(Nc1ccc(Cl)cn1)Nc1ccccc1F	-2.4	25.0	145.7	8.2	i	0.76	74.8
COc1ccc(CNC(=O)c2ccc(NC(=O)CC3SC(N4CCCC4)=NC3=O)cc2)cc1 (centres undefined)	-3.2	-20.7	86.5	-5.6	i	0.92	102.9
Cc1ccc(C(=O)CSc2nnc(-c3ccccc3N)n2C)cc1C	-1.5	38.5	136.4	-2.0	i	0.81	99.4
O=C1CCC(C(=O)NCc2ccc3c(c2)OCO3)N1 (centres undefined)	nt	nt	nt	11.2	i	0.92	100.1
CCOC(=O)c1cc(-c2ccc(OC)cc2OC)nn1-c1ccc(C(=O)O)cc1	nt	nt	nt	0.5	i	1.03	103.6
O=c1c2ccccc2oc2nc(C3CCCCC3)n(Cc3ccco3)c(=O)c12	-0.5	9.1	100.7	1.8	i	0.83	99.9
COc1ccc(C(=O)C(Sc2nnc(C)c(=O)[nH]2)c2ccc(OC)cc2)cc1 (centres undefined)	nt	nt	nt	nt	i	0.91	109.4
CC(=O)CC(C)(C)n1nnc(-c2ccccc2)n1	-0.1	nt	nt	1.9	i	1.03	113.0
Cc1ccc(C)c(NC(=O)c2sc(Cl)nc2C)c1	0.1	0.0	112.2	-12.5	i	0.94	97.2
